Screening results: PubChem, Center for Chemical Genomics, University of Michigan
CDC25B-CDK2 inh: primary biochemical HTRF screen for blockers of M-phase inducer phosphatase 2 binding to CDK2/cyclin A | AID 1259370, 2018 | HTRF CDC25B-CDK2/CyclinA binding, anti-His/anti-Flag; stronger effect = higher value | P30305+P24941 | z-score (test concentration not listed) | actives 0.72% (n = 94,000);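 note: score is relative to mean and SD of negative controls; strong numbers were not always called active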
TAR Tat displ: TAR RNA-Tat peptide displacers, HIV-1, primary screen, biochemical, FRET, FAM/TAMRA-labeled Tat. HIV-1 TAR RNA, Tat peptide displacement FRET; stronger effect = higher value. actives 0.6% (n = 100,000). z-score (concentration not given with the values);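 note: score is relative to mean and SD of negative controls; some compounds called inactive have numbers as strong as hits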
An asterisk follows results filed as active; · = no result given.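 Rule for the calls: active = z-score from 3 up in half or more of its runs; inactive = the rest.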

SMILES | CDC25B-CDK2 inh | TAR Tat displ
CC1Sc2ccc(S(=O)(=O)CCC(=O)Nc3ccc(F)cc3)cc2NC1=O (configuration not stated) | · | 1.2
COc1ccc(-c2noc(CN(C)S(=O)(=O)c3ccc(Cl)cc3)n2)cc1 | -1.6 | -0.28
N#Cc1c(SCC(=O)Nc2nccs2)nc(N2CCOCC2)c2c1CCCC2 | -11 | 1.6
COc1ccc(NC(=O)CSc2nc3c(c(=O)[nH]2)CCC3)cc1Cl | -1.4 | 1.8
NNC(=O)c1cc2ccccc2cc1O | -0.95 | ·
CCC1CN(C(=O)N2CCC(C(=O)N3CCOCC3)CC2)c2cc(C)ccc2O1 (configuration not stated) | · | 2.1
CC1(C)CC(=O)C2=C(C1)Nc1ccccc1NC2c1coc2ccc(Cl)cc2c1=O (configuration not stated) | 0.25 | 1.6
O=C(NCCc1ccccc1)NC1(C(F)(F)F)Oc2ccccc2O1 | 0.28 | ·
N#Cc1nc(COc2ccccc2Cl)oc1N1CCCC1 | -0.93 | -0.1
Nc1ncnc2c1cnn2Cc1ccccc1 | -1 | ·
O=C(Nc1nc2ccccc2s1)C1CCCN(c2ncnc3c2nc2n3CCCCC2)C1 (configuration not stated) | · | -0.31
CCC(=O)N1CCc2cc(Br)cc(S(=O)(=O)NCCOC)c21 | -0.84 | ·
COCCn1c(SCC(=O)N2CCCC2)nc2c(c1=O)SCC2 | -2.7 | 2.5
Cc1cc(NS(=O)(=O)c2ccc3[nH]c(=O)ccc3c2)ccc1Br | · | 3.8*
CCOC(=O)c1sc(N2C(=O)c3oc4cc(C)c(C)cc4c(=O)c3C2c2cccc(O)c2)nc1C (configuration not stated) | 1.6 | -2.2
CCOC(=O)c1sc2ccc(NS(=O)(=O)c3ccc(C)cc3)cc2c1C | -2.4 | ·
O=C(CSc1nc(-c2ccc(Cl)cc2)nc2cc(=O)[nH]n12)NCCc1ccccc1 | · | 0.31
Cc1ccc(Nc2c(-c3ccc(C)o3)nc3cnccn23)cc1 | 1.2 | ·
c1ccc(-c2nc(Sc3ncnc4c3cnn4-c3ccccc3)n[nH]2)cc1 | -0.63 | 0.28
COCCCNC(=O)C1=Cc2ccccc2OC1 | · | 0.78
CC1CCCC(NC(=O)c2ccc(NC3=NC4CS(=O)(=O)CC4S3)cc2)C1C (configuration not stated) | · | 6.2
Cc1cccc(S(=O)(=O)N2CCN(c3cc(N4CCN(C)CC4)nc(C)n3)CC2)c1 | 1.5 | -0.18
O=S(=O)(c1ccc2c(c1)CCCC2)N1CCCC(c2nc(-c3ccc4c(c3)OCO4)no2)C1 (configuration not stated) | · | 1.9
O=C1COc2ccc(S(=O)(=O)CCC(=O)N3CCN(c4ccccc4F)CC3)cc2N1 | · | -0.14
NC(C(=O)O)c1ccc(CCCC(=O)O)s1 (configuration not stated) | -1.8 | 0.7
CC1(C(=O)O)CC(=O)N=C2C=CC(Cl)=CN21 (configuration not stated) | -0.64 | ·
C=C(CC)C(=O)c1ccc(OCC(=O)O)c(Cl)c1Cl | · | 1.8
S=c1[nH]nc(COc2cccc(Br)c2)n1-c1ccccc1 | -1.2 | ·
CCc1ccc2c(c1)sc1ncc(-c3ccccc3)c(=O)n12 | -1.3 | -0.61
c1ccc(-c2nc3c4ccccc4nc(NC4CC4)n3n2)cc1 | -8.6 | ·
CN(c1c(-c2ccc3c(c2)CCCC3)c(=O)c1=O)C1CCCCC1 | · | 0.79
CN(c1ccc(F)cc1)S(=O)(=O)N1CCCC(C(=O)NCc2cccs2)C1 (configuration not stated) | · | 1.7
Cc1noc2ncnc(N3CCC(C)CC3)c12 | · | 1.3
COc1ccccc1-n1c(=O)[nH]c2c(C(N)=O)nc(-c3cccc(O)c3)nc21 | · | 1.6
CCOc1cc(OCC)cc(C(=O)Nc2cc(C(=O)OC)cc(C(=O)OC)c2)c1 | -2.3 | ·
Cc1cc(S(=O)(=O)[C@H]2CS(=O)(=O)C[C@@H]2N2CCN(C(=O)c3ccco3)CC2)ccc1F | -1.1 | 0.77
CC(C)(C)c1[nH]nc2c1C(c1cccnc1)C(C#N)=C(N)O2 (configuration not stated) | -1.6 | 2.2
O=C(Nc1ccc(Cl)cc1)c1csc2c1CCCC2 | -2 | 0.99
CC1CC(=O)Nc2cc(S(=O)(=O)NC(C)(C)C)ccc2S1 (configuration not stated) | · | 1.7
Cc1nc(C)c(-c2ccc(SCC(=O)c3ccc(F)cc3)nn2)s1 | · | 0.13
CCN1CCN(c2cc(C)nc3c(-c4ccc(F)cc4)c(C)nn23)CC1 | -2.2 | -0.83
Cc1cc(S(=O)(=O)[C@H]2CS(=O)(=O)C[C@@H]2N2CCN(c3cccc(Cl)c3)CC2)ccc1F | -1.7 | 0.65
C[C@H]1[C@H]2CCC3C4CC=C5C[C@@H](N(C)C)CC[C@]5(C)C4CC[C@@]32CN1C (some centres not stated) | · | 0.44
CCC(O)c1nc2ccccc2n1CCCOc1cccc(OC)c1 (configuration not stated) | -0.43 | 0.25
COC(=O)C1=C(C)NC2=C(C(=O)CC(c3ccco3)C2)C1c1ccc2c(c1)CCO2 (configuration not stated) | -2.7 | ·
O=C(c1cnn2ccccc12)N1CCN(C(c2ccccc2)c2ccccc2)CC1 | -1.2 | 2.3
Cc1cc2c(cc1C)NC(c1ccc([N+](=O)[O-])o1)C1=C(CC(C)(C)CC1=O)N2 (configuration not stated) | -3.7 | 0.8
COc1ccc(N2C(=O)c3ccncc3C2=O)c(OC)c1 | · | 1.2
NC(=O)c1c(NC(=O)C2c3ccccc3Oc3ccccc32)sc2c1CCCC2 | 0.28 | ·
CC1CCC(NC(=O)CN(C)S(=O)(=O)c2ccc3c(c2)CC(C)N3C(=O)C2CC2)CC1 (configuration not stated) | · | -0.59
Cc1ccc(O)c(C2=Nc3ccccc3N=C(c3ccco3)C2)c1 | 0.5 | 1.4
COc1ccc(OC)c(C2Nc3ccccc3NC3=C2C(=O)CC(c2ccccc2Cl)C3)c1 (configuration not stated) | -0.16 | ·
O=C(CSc1nnc(N2CCOCC2)c2ccccc12)NCc1ccco1 | -0.76 | -0.11
COc1ccc(OCCC#N)cc1 | -1.3 | ·
Cc1ccc2nc(NC(=O)CSc3nccn3Cc3ccc4c(c3)OCO4)sc2c1 | · | 0.12
COC(=O)c1c(C)oc2cc(Br)c(OC(C)=O)cc12 | -1.9 | ·
CC(Cc1ccco1)NC(=O)c1ccc(N2CCOc3ccccc32)s1 (configuration not stated) | -6.7 | 0.94
Cc1cc2nc3c(nc2cc1C)C(O)=C3O | -0.58 | ·
O=C(Nc1cc(C(F)(F)F)ccc1N1CCCCC1)c1ccncc1 | -1.3 | ·
O=C(CCCc1ccccc1)N(c1ccc(Cl)cc1)C1C=CS(=O)(=O)C1 (configuration not stated) | -1 | -0.59

Later entries
SMILES | CDC25B-CDK2 inh | TAR Tat displ
Cc1nn(-c2nncc(-c3ccc(F)cc3)n2)c2c1C(c1ccsc1)CC(=O)N2 (configuration not stated) | -0.87 | 2.3
COC(=O)c1sccc1NC(=O)c1ccc(Cl)cc1Cl | -1.8 | ·
Cc1cc(C(=O)ONC(=O)Cc2ccccc2)nn1-c1cc(Cl)ccc1Cl | -1.1 | ·
NS(=O)(=O)c1cccc(NC(=O)c2cccnc2Sc2ccccc2)c1 | -0.04 | ·
Cc1cc(C)c(N2C(=O)C3ON(c4ccccc4)C(c4ccncc4)C3C2=O)c(C)c1 (configuration not stated) | -0.66 | -1
NC(=O)c1oc2ccccc2c1NC(=O)CSc1ccccn1 | 0.52 | ·
CCC(C(N)=O)(c1ccccc1)c1ccc([N+](=O)[O-])cc1 (configuration not stated) | 0.64 | ·
COc1cccc(-c2noc(NCc3ccccc3)n2)c1 | · | 0.53
COc1ccc2c(c1)CC(NC(=O)Nc1ccc(F)cc1)CO2 (configuration not stated) | · | 2.4
CC1=C(C(=O)N2CC(C)CC(C)C2)C2(CCC(C)CC2)OC1=O (configuration not stated) | -1.7 | 0.18
CCOC(=O)c1c(NC(C)=O)oc2cccnc12 | -0.06 | 1.3
CCc1c(C)sc(NC(=O)c2noc3c2CCc2ccccc2-3)c1C#N | -1.2 | ·
Cc1nc(-c2ccc(C)c(S(=O)(=O)Nc3ccc(Br)c(C)c3)c2)cs1 | · | -0.3
c1ccc(-c2nc3c4ccccc4nc(N4CCC(N5CCCCC5)CC4)n3n2)cc1 | -0.74 | 0.34
CCC(C)Nc1c(-c2ccc(C)cc2)c(=O)c1=O (configuration not stated) | · | 0.79
COc1ccc(C2SCC(=O)N2c2ccc(Br)cc2)cc1 (configuration not stated) | -1.7 | ·
N#Cc1c(N)nc2c(c1-c1cccc(O)c1)CCCCCC2 | 0.41 | ·
Cc1ccc(NS(=O)(=O)c2cc3[nH]c4c(c3cc2C)C(=O)CCC4)cc1Cl | · | 1.7
Cn1cnc(S(=O)(=O)N2CCCC(C(=O)Nc3nc4ccc(Cl)cc4s3)C2)c1 (configuration not stated) | · | 0.97
Cc1nc2ccc(Cl)cn2c(=O)c1NC(=O)C1CCCC1 | · | 2.3
O=C(CCCCCCC(=O)Nc1ccccc1)NO | · | 2.5
CCCN1CCN(CCCNC(=O)c2cnc3sc(N4CCOCC4)nn3c2=O)CC1 | · | 0.74
Cn1c(Cn2c(=O)sc3ccccc32)nnc1SCC(=O)Nc1ccc(C(F)(F)F)cc1 | -0.95 | ·
CC(C)NC(=O)NCc1c(-n2cccc2)sc2c1CCN(C)C2 | 2.7 | -8.5
Cc1nc2c(c(SCc3cc(Cl)cc4c3OCOC4)n1)CCC2 | -0.95 | 0.46
Cc1ccccc1OCc1nn2c(C3COc4ccccc4O3)nnc2s1 (configuration not stated) | -1.9 | 3.3
CC(CC(=O)N1CCc2ccccc2C1)CC1=NS(=O)(=O)c2ccccc2N1 (configuration not stated) | -1.2 | ·
Cc1cccc(-n2cc(-c3ccccc3)c3c(NCC(C)C)ncnc32)c1 | -2.1 | ·
CCc1nn(CC(=O)NCCc2c[nH]c3ccccc23)c(=O)c2cc3sc(C)cc3n12 | -0.82 | 0.23
Cc1ccc2oc3c(c(=O)c2c1)C(c1ccc(F)cc1)N(CCCN1CCOCC1)C3=O (configuration not stated) | 0.88 | -0.11
COc1ccc2nc(-n3nc(C)c4c3NC(=O)CC4c3cnn(C)c3C)sc2c1 (configuration not stated) | · | 0.74
C=CCN(Cc1nc(-c2cccc(C)c2)no1)C(=O)NCCC | -0.48 | 0.6
NS(=O)(=O)c1ccc2nc(NC(=O)CCC3CCCCC3)sc2c1 | · | -0.17
CC12c3ccccc3C(c3ccccc31)C1C(=O)N(c3nccs3)C(=O)C12 (configuration not stated) | -1.2 | -0.76
N[C@@H](CO)CSCc1ccccc1 | -0.55 | ·
Cc1noc(-c2ccccc2)c1NC(=O)NCc1cccs1 | 0.61 | ·
O=C(NCc1cccs1)c1ccc(CSc2nc3ccncc3[nH]2)cc1 | -0.69 | -0.97
COc1ccc(C2CC(=O)C3=C(C2)Nc2nnnn2C3c2ccc(C)cc2)cc1 (configuration not stated) | -0.57 | -0.2
Cc1ccc2c(c1)c1c(n2CC(O)CN2CCCCCC2)C(=O)CCC1 (configuration not stated) | -1.9 | ·
COc1ccc(OC)c(NC(=O)C2=Cc3cc(Cl)cc(OC)c3OC=C2)c1 | -1.4 | 0.45
CCn1cc(S(=O)(=O)c2ccc(C)cc2C)c(=O)c2cc(F)c(N3CCOCC3)cc21 | · | -0.05
COc1ccc(Br)cc1CNc1cc(C)cc(C)c1 | -2.1 | 0.4
Cc1nnc2sc(SCC(=O)Nc3ccc(F)cc3)nn2c1=O | · | 1.5
Cc1nc2c3ccccc3n3c(CCCC(=O)N4CCC(Cc5ccccc5)CC4)nnc3n2n1 | -2.2 | 1.1

Some of these compounds in order of SMILES length, descending.
SMILES | CDC25B-CDK2 inh | TAR Tat displ
CCn1cc(S(=O)(=O)c2ccc(C)cc2C)c(=O)c2cc(F)c(N3CCOCC3)cc21 | · | -0.05
Cc1ccc2oc3c(c(=O)c2c1)C(c1ccc(F)cc1)N(CCCN1CCOCC1)C3=O (configuration not stated) | 0.88 | -0.11
COc1ccc2nc(-n3nc(C)c4c3NC(=O)CC4c3cnn(C)c3C)sc2c1 (configuration not stated) | · | 0.74
CC(CC(=O)N1CCc2ccccc2C1)CC1=NS(=O)(=O)c2ccccc2N1 (configuration not stated) | -1.2 | ·
COc1ccc(OC)c(NC(=O)C2=Cc3cc(Cl)cc(OC)c3OC=C2)c1 | -1.4 | 0.45
Cc1cccc(-n2cc(-c3ccccc3)c3c(NCC(C)C)ncnc32)c1 | -2.1 | ·
Cc1ccc2c(c1)c1c(n2CC(O)CN2CCCCCC2)C(=O)CCC1 (configuration not stated) | -1.9 | ·
O=C(NCc1cccs1)c1ccc(CSc2nc3ccncc3[nH]2)cc1 | -0.69 | -0.97
NS(=O)(=O)c1ccc2nc(NC(=O)CCC3CCCCC3)sc2c1 | · | -0.17
C=CCN(Cc1nc(-c2cccc(C)c2)no1)C(=O)NCCC | -0.48 | 0.6
Cc1nnc2sc(SCC(=O)Nc3ccc(F)cc3)nn2c1=O | · | 1.5
Cc1noc(-c2ccccc2)c1NC(=O)NCc1cccs1 | 0.61 | ·
COc1ccc(Br)cc1CNc1cc(C)cc(C)c1 | -2.1 | 0.4
N[C@@H](CO)CSCc1ccccc1 | -0.55 | ·
